# Screening results from PubChem.
# Mtb H37Rv = Mycobacterium tuberculosis H37Rv growth inhibition, cell based, confirmatory dose response (AID 1949) | one-dose inhibition, % at 10 µg/mL; IC50 in µg/mL for titrated hits | most inactive calls were filed without a number and no value below 0 was filed | 100,000 compounds, 1.6% hits | M. tuberculosis H37Rv growth inhibition;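 active means confirmed in a dose series; inconclusive means about 50% or more but not retested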;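 further: bacteria grown 7 days with compound before Alamar blue readout; 0% = untreated bacteria and 100% = reference antibiotic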
# The depositor's hits bear a star; i = inactive; ? = inconclusive. Only part of the results is shown, so the mix of outcomes need not match the whole.
SMILES,Mtb H37Rv
O=C(CCC(=O)Nc1ccccc1Cl)NNC(=S)NCc1ccccc1,0.3%
COc1ccc(OC)c(NC(=O)CSc2ccccc2C(=O)O)c1,i
C=CCOc1c(OC)cc(Cl)cc1C1NC(=O)NC(C)=C1C(C)=O (stereo not drawn),i
O=C(O)C1CC(=O)N(c2cccc(Cl)c2Cl)C1 (stereo not drawn),i
CS(=O)(=O)N(CC(=O)Nc1cccc(Cl)c1)c1ccccc1Cl,1.4%
COc1cc(C(=O)Nc2ccccc2C(=O)NCCc2ccccc2)cc(OC)c1OC,i
CC(=O)c1cccc(NS(=O)(=O)c2cccc(F)c2)c1,i
Cc1sc2ncnc(Nc3cccc(C(=O)O)c3)c2c1C,i
CCOCC(=O)Nc1cc([N+](=O)[O-])ccc1OC,?
CCNC(=O)c1ccccc1SCc1ccccc1,i
CC(=O)Nc1ccccc1NC(=O)COc1cc(Cl)c(Cl)cc1Cl,i
CCCN1CCC(NC(=S)Nc2cc(Cl)ccc2OC)CC1,1.1%
COc1ccc(OC(C)C(=O)Nc2ccccc2Br)cc1 (stereo not drawn),i
O=C(O)C1CCCN1S(=O)(=O)c1ccc(Cl)c(Cl)c1 (stereo not drawn),i
O=c1c[n+]([O-])c2ccccc2n1OCc1ccc(Oc2ccccc2)cc1,i
COc1cccc2cc(C(=O)n3ccc(C)n3)c(=O)oc12,1.0%
O=C(NC(=S)Nc1ccccc1I)c1ccco1,4.2%
OCc1nc2ccccc2n1CCCOc1ccc(Br)cc1,?
CCCOc1cccc(C(=O)NCc2ccncc2)c1,1.5%
COc1ccc(S(=O)(=O)N2CCC(C(N)=O)CC2)cc1C,i
Ic1ccc(OCCCNC2CCCC2)cc1,i
C=CCc1cc(OC)ccc1OCCN(C)Cc1ccccc1,i
Cc1ccccc1N1CCN(CC(O)COc2ccc(C(=O)c3ccccc3)cc2)CC1 (stereo not drawn),2.81µg/mL*
COc1c2occc2c(OC)c2c(=O)cc(C(=O)O)oc12,0.3%
CC(C)(C)c1cc(Cl)ccc1OCCN1CCCC1,i
# (cont.)
SMILES,Mtb H37Rv
COc1ccc(C(O)(C#Cc2ccccc2)c2ccccc2)cc1 (stereo not drawn),i
Cc1cc(I)cc(C)c1NC(=O)CSc1n[nH]c(-c2ccc(Cl)cc2)n1,i
O=C(NC(=S)N1CCCCC1c1cccnc1)c1ccc2c(c1)OCO2 (stereo not drawn),25.2%
Cc1ccc(-c2nnc(N3CCCCC3)c3ccccc23)cc1S(=O)(=O)N1CCN(C)CC1,i
COc1ccc(NC(=O)CN(c2ccc(OC)cc2)S(=O)(=O)c2ccccc2)cc1,i
c1ccc(CSc2nnc(-c3ccncc3)n2-c2ccccc2)cc1,i
CS(=O)(=O)N1CCc2cc(N)ccc21,i
O=C(COc1ccc(Cl)cc1Cl)Nc1ncccn1,i
CC1CN(C(=O)c2ccc(Cl)cc2)CCN1C(=O)c1ccc(Cl)cc1 (stereo not drawn),i
O=C(NCc1ccc(F)cc1)c1cc(-c2ccccc2Cl)on1,i
O=S(=O)(Nc1ccc(Br)cc1F)c1ccc(Cl)c(C(F)(F)F)c1,2.9%
COc1ccc(OC)c(NC(=O)CN(C)S(=O)(=O)c2ccc(Br)cc2)c1,1.5%
Cc1ccc(C(=O)Nc2ccccc2F)cc1Br,i
Cc1ccc(C(C)C)cc1OCCN1CC(C)OC(C)C1 (stereo not drawn),i
COc1ccc(C2CC(=O)c3cnn(-c4nc5ccccc5s4)c3C2)cc1 (stereo not drawn),i
COC(=O)c1ccc(C)c(NC(=O)C(OC)c2ccccc2)c1 (stereo not drawn),i
CCOC(=O)c1c(-c2ccc(OC)c(OC)c2)csc1NC(=O)CN1C(=O)c2ccccc2C1=O,i
O=C(C1CC1c1ccccc1)N1CCN(c2ccccc2F)CC1 (stereo not drawn),1.0%
CCOc1cccc(C(=O)NC(=S)Nc2ccccc2N2CCOCC2)c1,i
Cc1ccc(C(=O)Oc2ccc(C(=O)CSc3nc4ccccc4o3)cc2)cc1,0.8%
O=C(O)c1ccc(COc2ccccc2CO)cc1,i
CSc1nc2c(c(=O)[nH]c(=O)n2C)n1Cc1ccccc1Cl,i
CCOC(=O)c1ccc(NC(=O)c2ccc(Cl)cc2Cl)cc1,i
O=C(CSc1nnc(-c2ccccc2)o1)Nc1nccs1,36.9%
Cc1cc(NC(=O)NCCCN2CCN(C3CCCCC3)CC2)ccc1Cl,i
# Additional records.
SMILES,Mtb H37Rv
COc1ccc(CN2C(=O)C(=O)c3ccccc32)cc1OC,i
CCc1ccc(OCC(=O)Nc2ncc3c(n2)CC(C)(C)CC3=O)cc1,i
O=C(Nc1ccccc1)Nc1ccc(F)cc1F,i
CCOC(=O)c1c(NC(=O)c2cccs2)sc(C)c1-c1ccccc1,9.4%
COc1ccc(N(CC(=O)Nc2ccccc2Cl)S(C)(=O)=O)cc1OC,i
CCOc1ccc(C(=O)NC(=S)Nc2ccc(C(=O)O)cc2)cc1Cl,i
Nc1nc(CSc2nnc(-c3cccc4ccccc34)n2-c2ccccc2)cs1,i
CCOc1ccc(C(=O)Nc2ccc(C(C)=O)cc2)cc1Cl,1.6%
O=C(CSc1nc2ccccc2[nH]1)Nc1cccc(Cl)c1,i
Cc1cccc(C)c1NC(=O)COc1cc2oc(=O)cc(-c3ccccc3)c2cc1Cl,i
CCN(CC)C(=O)c1ccc(N(Cc2ccccc2C)S(C)(=O)=O)cc1,i
Nc1nncn1C(=O)Cc1ccccc1,i
O=C(CC1Sc2ccccc2NC1=O)Nc1ccccc1F (stereo not drawn),i
Cc1cccc(Oc2nc3c(c(=O)n(Cc4ccc(Cl)cc4)c(=O)n3C)n2C)c1C,i
CCCc1cc(=O)[nH]c(/N=C(\N)Nc2ccc(F)cc2)n1,i
CN(C)C(=O)COc1cc(Cl)c(Cl)cc1Cl,i
Cc1ccc(C(=O)NC(=S)Nc2cccc(NC(=O)c3cccs3)c2)c(C)c1,6.96µg/mL*
CCn1c(CC(=O)Nc2cccc(OC)c2)nnc1SCC(=O)Nc1cccc(C(=O)OC(C)C)c1,0.2%
Cc1nc(C)c(-c2csc(Nc3ccc(C(=O)O)c(O)c3)n2)s1,?
CCOc1cc(C2C(C#N)=C(N)SC(N)=C2C#N)ccc1OCCN1CCOCC1,i
COc1cc(CNCc2cccnc2)ccc1OCC(=O)NC(C)(C)C,i
FC(F)(F)c1ccccc1NC(=S)N1CCN(c2ncccn2)CC1,i
Cc1ccc(N2CC(=O)N(Cc3ccccc3)C2=S)cc1,i
Cc1c(CCC(=O)O)c(=O)oc2cc3occ(-c4ccccc4)c3cc12,i
Cc1ccc(S(=O)(=O)N2CCN(c3cc(Cl)ccc3C)CC2)cc1C,i
# Additional compounds.
SMILES,Mtb H37Rv
COc1ccc(CCNCc2ccccn2)cc1OC,i
COc1cc(S(=O)(=O)N2CCCCC2)ccc1Br,i
CCOc1ccc(S(=O)(=O)Nc2ccc(S(=O)(=O)Nc3cc(C)ccc3OC)cc2)cc1,i
CC(C)(C)N1C(=O)c2ccc(C(=O)c3ccc(C(=O)O)cc3)cc2C1=O,i
Cc1cc(OCCN(C)C)ccc1C(C)C,8.7%
COc1ccc(NC(=O)c2cc3ccccc3oc2=O)c(C)c1,i
Cc1ccccc1Oc1ccc(S(=O)(=O)N2CCN(C)CC2)cc1,i
CCn1c(SCc2nc3ccccc3[nH]2)nc2cc(C(=O)OC)ccc2c1=O,i
COc1ccc(NC(=O)C2CCN(C(=O)c3ccccc3)CC2)c(OC)c1,1.2%
COC(=O)c1sc2nc(-c3ccccc3)nc(NC(C)=O)c2c1C,i
COc1ccccc1NC(=O)CN(Cc1ccccc1)S(=O)(=O)c1ccc(F)cc1,i
c1ccc2cc3nc4c(ccc5ccccc54)nc3cc2c1,<0.1µg/mL*
COCCNC(=S)N1CCN(C/C=C/c2ccccc2)CC1,i
Cc1cnn(C(=O)c2c(-c3ccccc3)noc2C)c1,41.9%
O=C1c2ccccc2C(=O)N1c1n[nH]c(-c2cccnc2)n1,i
CCc1ccc(OCC(=O)Oc2ccc(OC)cc2)c(Br)c1,i
COc1ccc(C)cc1NC(=O)c1ccc(Cc2ccc(C)cc2)o1,2.71µg/mL*
CC(C)(C)C(=O)Nc1nnc(CC(=O)N2CCCCC2)s1,0.0%
O=C(c1sc2cc(Cl)cc(Cl)c2c1Cl)N1CCCCC1,1.9%
Cn1c(SCC(=O)Nc2ccccc2F)nnc1-c1ccc(Br)cc1,i
CC(=O)C1=C(C)N(Cc2ccco2)C(=O)C1(NC(=O)C1CCCCC1)C(F)(F)F (stereo not drawn),3.4%
CC1CCc2nc(NC(=O)CSc3nc4ccccc4s3)sc2C1 (stereo not drawn),21.5%
C#CCn1c(/C=C/c2ccccc2)nc2ccccc21,5.4%
Cc1ccc(CCC(=O)Nc2cc(C(F)(F)F)ccc2Cl)o1,i
COCCSc1nnc(NC(=O)CCSc2ccccc2)s1,i
# Next section
SMILES,Mtb H37Rv
COc1ccc(NC(=O)NCCCc2ccccc2)cc1OC,i
COc1ccc(OC)c(S(=O)(=O)Nc2ccccc2Sc2ccccc2)c1,i
CCn1c(CCc2ccccc2)nnc1SCC(=O)Nc1ccc(Br)cc1F,i
O=C(CCN1CCCCCC1)Nc1ccc(Cl)cc1,i
CS(=O)(=O)N(CC(=O)NCc1ccccn1)Cc1ccc(Cl)cc1,i
CCN1CCN(C(=S)Nc2ccc(C)c(Cl)c2)CC1,i
COc1ccc(C(=O)CCNc2cccc(C)c2)cc1,8.33µg/mL*
CCOC(=O)c1c(NCc2cc(C)ccc2O)sc2c1CCCC2,8.9%
COc1ccccc1NC(=O)CSc1nc(C)cc(=O)[nH]1,i
NNc1ccc(Cl)nn1,27.7%
Nc1ncnc(NCCc2ccccc2)c1[N+](=O)[O-],i
COc1cc2c(cc1OC)-c1nnnn1C(C)(C)C2,i
O=C(O)Cc1ccc(NC(=S)Nc2cccc(Cl)c2Cl)cc1,i
Cc1ccc(N(Cc2ccc(C(=O)NCCOc3ccccc3C(C)C)cc2)S(C)(=O)=O)cc1C,i
COc1ccc(Cl)cc1S(=O)(=O)N1CCN=C1c1ccccc1,i
COc1ccc(C2=NN(S(=O)(=O)c3ccccc3)C(c3ccc(C)cc3)C2)cc1OC (stereo not drawn),i
N#CC1=C(N)Oc2cc(N)ccc2C1c1cccc(Oc2ccccc2)c1 (stereo not drawn),i
CNc1cc(N2CCN(C(=O)c3ccc(Cl)cc3)CC2)ccc1[N+](=O)[O-],i
COc1ccccc1NC(=O)CCC(=O)Nc1ccccc1OC,i
Cc1ccc(NC(=S)Nc2cccc(F)c2)cc1C,i
CCc1cccc(C)c1NC(=O)C1CCCN(S(C)(=O)=O)C1 (stereo not drawn),i
CCCC(C)C(=O)Nc1nc2c(C)cccc2s1 (stereo not drawn),?
COc1ccccc1C(=O)Nc1cc(Cl)c(O)c(Cl)c1,8.3%
S=C(Nc1ccccc1)Nc1ccccc1Br,i
COc1ccc(Nc2nc(NC(C)(C)C)nc(OC)n2)c(OC)c1,i

# Laid out differently: entries from further up
Structure	Mtb H37Rv
Cn1c(SCC(=O)Nc2ccccc2F)nnc1-c1ccc(Br)cc1	i
CC(=O)C1=C(C)N(Cc2ccco2)C(=O)C1(NC(=O)C1CCCCC1)C(F)(F)F (stereo not drawn)	3.4%
CC1CCc2nc(NC(=O)CSc3nc4ccccc4s3)sc2C1 (stereo not drawn)	21.5%
C#CCn1c(/C=C/c2ccccc2)nc2ccccc21	5.4%
Cc1ccc(CCC(=O)Nc2cc(C(F)(F)F)ccc2Cl)o1	i
COCCSc1nnc(NC(=O)CCSc2ccccc2)s1	i
COc1ccc(NC(=O)NCCCc2ccccc2)cc1OC	i
COc1ccc(OC)c(S(=O)(=O)Nc2ccccc2Sc2ccccc2)c1	i
CCn1c(CCc2ccccc2)nnc1SCC(=O)Nc1ccc(Br)cc1F	i
O=C(CCN1CCCCCC1)Nc1ccc(Cl)cc1	i
CS(=O)(=O)N(CC(=O)NCc1ccccn1)Cc1ccc(Cl)cc1	i
CCN1CCN(C(=S)Nc2ccc(C)c(Cl)c2)CC1	i
COc1ccc(C(=O)CCNc2cccc(C)c2)cc1	8.33µg/mL*
CCOC(=O)c1c(NCc2cc(C)ccc2O)sc2c1CCCC2	8.9%
COc1ccccc1NC(=O)CSc1nc(C)cc(=O)[nH]1	i
NNc1ccc(Cl)nn1	27.7%
Nc1ncnc(NCCc2ccccc2)c1[N+](=O)[O-]	i
COc1cc2c(cc1OC)-c1nnnn1C(C)(C)C2	i
O=C(O)Cc1ccc(NC(=S)Nc2cccc(Cl)c2Cl)cc1	i
Cc1ccc(N(Cc2ccc(C(=O)NCCOc3ccccc3C(C)C)cc2)S(C)(=O)=O)cc1C	i
COc1ccc(Cl)cc1S(=O)(=O)N1CCN=C1c1ccccc1	i
COc1ccc(C2=NN(S(=O)(=O)c3ccccc3)C(c3ccc(C)cc3)C2)cc1OC (stereo not drawn)	i
N#CC1=C(N)Oc2cc(N)ccc2C1c1cccc(Oc2ccccc2)c1 (stereo not drawn)	i
CNc1cc(N2CCN(C(=O)c3ccc(Cl)cc3)CC2)ccc1[N+](=O)[O-]	i
COc1ccccc1NC(=O)CCC(=O)Nc1ccccc1OC	i
Cc1ccc(NC(=S)Nc2cccc(F)c2)cc1C	i
CCc1cccc(C)c1NC(=O)C1CCCN(S(C)(=O)=O)C1 (stereo not drawn)	i
CCCC(C)C(=O)Nc1nc2c(C)cccc2s1 (stereo not drawn)	?

# (more compounds)
SMILES,Mtb H37Rv
CC(C)Oc1cccc(C(=O)NC(=S)Nc2ccccc2C(N)=O)c1,4.1%
COc1ccc(/C=C(\C#N)S(=O)(=O)c2ccccc2)cc1CN1CCOCC1,i
CCS(=O)(=O)c1ccsc1S(=O)(=O)CC,i
CCOc1ccc(C(=O)Nc2cc(Cl)c(OC)cc2OC)cc1OCC,i
CCc1ccc(N2CC(=O)N(C)C2=S)cc1,i
COc1ccc(NC(=S)Nc2cc(C)cc(C)n2)cc1OC,i
NC(=O)CC1Nc2cccc3cccc(c23)NC1=O (stereo not drawn),i
CSc1nc(N)nc(SCC(=O)Nc2ccc(Cl)cc2)c1C#N,9.9%
CCCCC(=O)Nc1ccc(C(=O)Nc2ccc([N+](=O)[O-])cc2C)cc1,i
COc1cc(C(=O)NNC(=S)NCC2CCCO2)cc(OC)c1OC (stereo not drawn),i
